# Cruzain Triton: inhibitors of Trypanosoma cruzi cruzain with detergent; P25779; purified cruzain, Z-FR-AMC fluorescence, 0.01% Triton; Potency, µM, for the others: max response, negative = inhibition, most hits filed as inhibitors; actives 0.43% (n = 200,000); AID 1478;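 note: plate controls were neutral wells for no effect and buffer without enzyme for full effect; nearly all actives have a fitted effect of over 40% in size; top concentration of the series not given in the record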
# Target sequence (P25779 123-467 limits assumed): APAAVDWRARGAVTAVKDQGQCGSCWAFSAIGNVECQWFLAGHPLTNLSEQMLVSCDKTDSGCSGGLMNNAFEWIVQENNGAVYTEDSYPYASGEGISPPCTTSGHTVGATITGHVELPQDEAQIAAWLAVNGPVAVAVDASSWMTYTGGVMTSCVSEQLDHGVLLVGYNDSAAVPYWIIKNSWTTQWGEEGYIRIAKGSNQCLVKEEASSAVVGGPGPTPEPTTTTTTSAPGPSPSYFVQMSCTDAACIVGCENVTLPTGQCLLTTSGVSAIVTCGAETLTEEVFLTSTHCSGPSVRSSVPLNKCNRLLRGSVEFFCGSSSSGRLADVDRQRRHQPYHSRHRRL
#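 Read-out: AMC fluorescence (360 nm excitation, 450 nm emission), four reads over 2 min, first-to-third difference used. Conditions: cruzain 1.5 nM, Z-FR-AMC 2 uM, pH 5.5 acetate, 5 mM DTT, 0.01% Triton X-100.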
# Cruzain inh noDet: cruzain (T. cruzi) inhibition without detergent. P25779. purified cruzain, Z-FR-AMC fluorescence, no detergent. Potency, µM, inactives show max response, negative = inhibition, most hits filed as inhibitors. actives 2.3% (n = 200,000). AID 1476;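 note: plate controls were enzyme without inhibitor for no effect and buffer without enzyme for full effect; nearly all actives have a fitted effect of over 40% in size; top concentration of the series not given in the record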
#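 Detergent-free condition (0.00005% Triton X-100) in acetate buffer pH 5.5 with DTT. 1.5 nM enzyme and compound were pre-mixed 15 min, then 2 uM Z-FR-AMC substrate added; reaction progress from fluorescence change between first and third reads (60 s).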
# LASV entry inh: blocks Lassa virus binding to or entry into cells; Lassa virus pseudotype entry inhibition, cell reporter; control for the full effect not named in the record; Potency, µM (titrated, usually from 37.9 µM), for the others: at the top dose activity change, negative = inhibition, usual class: inhibitors; actives 1.2% (n = 300,000); active means well fitted inhibition curve with a large enough effect; inconclusive means small, poorly fitted or top-dose-only effect, or effect the other way; inactive means flat fitted curve, though single readings scatter; tested in HEK293 cells; note: % is set by controls: 0 for no effect and ±100 for the full control effect; nearly all actives have a fitted effect of over 50% in size; luciferase read-out
# RE007 growth inh: less growth of the S. pombe RE007 Vpr strain. S. pombe RE007 Vpr strain, BacTiter-Glo ATP luminescence, 24 h; control for the full effect not named in the record. Potency, µM (titrated, usually from 92.2 µM), for the others: at the top dose activity change, negative = less growth. actives 0.21% (n = 360,000). AID 651644; active = well fitted falling curve with a large enough effect; inconclusive = small, poorly fitted or top-dose-only effect; inactive = no such curve, though single readings can be large or run the other way;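 note: % is set by controls: 0 for no effect and ±100 for the full control effect; nearly all actives have a fitted effect of over 50% in size; the assay follows cell death caused by Vpr and the record does not say whether a fall means rescue or toxicity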
#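 Fission yeast strain RE007, carrying one chromosomally integrated HIV-1 vpr copy, was seeded at OD 0.01 in PMG+AL medium with 23 nL pinned compound. After 24 h at 30 °C and 99% humidity, viability was read by BacTiter-Glo luminescence.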
# SARS PLP yeast: inhibitors of SARS-CoV papain-like protease in yeast | actives 0.19% (n = 330,000) | AID 485353 | S. cerevisiae expressing SARS-CoV PLpro, growth rescue; control for the full effect not named in the record | Potency, µM (highest dose often 32.9 µM), for inactives: at the highest dose activity, positive = growth rescue; active means well fitted rising curve with a large enough effect; inconclusive means small, poorly fitted or top-dose-only effect; inactive means no such curve, though single readings can be large or run the other way; note: 0% is about no effect; nearly all actives have a fitted effect of over 55% in size; growth read by luminescence after 48 h
# Marburg entry inh: Marburg virus entry inhibition. AID 540276. Marburg virus pseudotyped entry inhibition, cell reporter; control for the full effect not named in the record; about a third of the inactives were read at about 46 µM. Potency, µM (highest dose often 37.8 µM), without a hit: top-dose activity change, negative = inhibition, usual class: inhibitors. actives 1.8% (n = 300,000); active = well fitted inhibition curve with a large enough effect; inconclusive = small, poorly fitted or top-dose-only effect, or effect the other way; inactive = flat fitted curve, though single readings scatter; tested in HEK293 cells; about a fifth of its hits are not listed in these tables; note: % is set by controls: 0 for no effect and ±100 for the full control effect; luciferase read-out
# 2A StopGo: lowers the luciferase signal of an FMDV 2A StopGo reporter. human cells with a luciferase reporter of 2A StopGo recoding; control for the full effect not named in the record. Potency, µM (top dose mostly 57.9 µM), for inactives: top-dose signal change, negative = less light. actives 1.2% (n = 410,000). AID 1159524; active = well fitted falling curve with a large enough effect; inconclusive = small, poorly fitted or top-dose-only effect; inactive = no such curve, though single readings can be large or run the other way; tested in HEK293T cells; note: % is set by controls: 0 for no effect and ±100 for the full control effect; nearly all actives have a fitted effect of over 45% in size; luciferase light after 4 h
# NS1 function inh: influenza NS1 inhibition. AID 2326. Potency, µM (doses to about 46.1 µM), inactives show at the highest dose activity, positive = more growth. actives 0.4% (n = 270,000). S. cerevisiae slowed by influenza A NS1, growth recovery by OD600; active means well fitted rising curve with a large enough effect; inconclusive means small, poorly fitted or top-dose-only effect; inactive means no such curve, though single readings can be large or run the other way; note: nearly all actives have a fitted effect of over 50% in size
#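 A cell-based growth assay was used: compounds that relieve NS1-induced slow growth of budding yeast raise OD600. Assay medium was yeast nitrogen base with ammonium sulphate and -URA supplement, pH 6.0, with 2% galactose.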
# Active calls of the source: *; ? = inconclusive; . = not tested or not shown; & = joins results of further samples; [ ] = dose if it differs, or a comment. Unless noted, calls come from the whole dose curve; as a rule, active = well fitted curve in the direction sought with a large enough effect; inconclusive = small, poorly fitted or top-dose-only effect, or another doubt; inactive = no such curve, though single readings can be large; an effect the other way counts as inactive or inconclusive. Potency is the fitted concentration of half-maximal effect. Rows are unselected, and some 4.5% of all compounds hit somewhere here.
# Fields – Cruzain inh noDet	LASV entry inh	Cruzain Triton	RE007 growth inh	SARS PLP yeast	Marburg entry inh	NS1 function inh	2A StopGo
[1] CCC(=O)N1CCc2cc(Br)cc(S(=O)(=O)CCC(=O)N3CCN(c4ccc(OC)cc4)CC3)c21
    0%	-3%[46.1 µM]	0.0%	.	.	0%[46.1 µM]	.	5%
[2] N#CN=C(N)c1ccccc1
    12%	-2%	-2.1%	-8%	-4%&1%	10%&10%	4%&-35%	.
[3] Cc1cc(C)c(C#N)c(SCC(=O)N2CCN(Cc3ccccc3)CC2)n1
    0%	-13%	-0.2%	-11%	0%	8%	-9%	-24%
[4] CC1CCN(C(=O)CSc2nnc(-c3ccco3)o2)CC1
    2%	.	-1.4%	24%	0%	.	-8%	34%[activator]
[5] Cc1cc(C(=O)N2CCC(CO)(Cc3cccc(C(F)(F)F)c3)CC2)n[nH]1
    .	.	.	-12%	-1%	.	10%	-30%
[6] Cc1ccc(-c2nc3cc(Cl)ccc3o2)cc1NC(=O)c1cc([N+](=O)[O-])ccc1N1CCOCC1
    -8%	0%[46.1 µM]	-0.3%	.	.	2%[46.1 µM]	.	27%
[7] CCCn1c(=S)[nH]c2cc(C(=O)N3CCc4ccccc43)ccc2c1=O
    1%	-2%	-5.1%	-8%	3%	?	6%	-9%
[8] CCCC(=O)OCC(=O)NC1CCCc2ccccc21 (stereo not drawn)
    .	11%	.	-5%	-2%	-7%[46.1 µM]	-1%	-10%
[9] CCO[C@@H]1OC(C(=O)NC2CC2)=C[C@H](c2c[nH]c3ccccc23)[C@H]1CCCO
    .	.	.	-4%	0%	.	-1%	-24%
[10] O=C(/C=C/c1ccc2ccccc2n1)c1cc(Br)ccc1O
    .	.	.	3%	2%	.	9%	50%[activator]
[11] CC(C)Cc1nnc(NC(=O)CCC(=O)Nc2ccccc2F)s1
    .	.	.	-15%	0%	.	0%	-17%
[12] CCc1ccccc1NC(=S)NCCSc1ccc(Cl)cc1
    .	?	.	-10%	-27%	?	.	1%
[13] NC(=O)CC(NC(=O)Cc1cccc2ccccc12)c1ccc(N2CCN(c3ccccc3)CC2)c([N+](=O)[O-])c1 (stereo not drawn)
    .	.	.	0%	-5%	.	4%	-24%
[14] C=C(C)COc1ccc(-c2[nH]ncc2-c2ccccc2)c(O)c1
    -2%	8.9µM*	-11%	?	-20%	?	-148%	?
[15] Cc1ccc(C)c(OCC(=O)Nc2ccc(S(=O)(=O)Nc3ccccn3)cc2)c1C
    -17%	-18%	-13%	6%	?	14%	18%	6%
[16] CC(=O)Nc1ccc(NC(=O)CSc2ncnc3c2cnn3Cc2ccccc2)cc1
    .	6%[46.1 µM]	.	-11%	0%	?	8%	-14%
[17] CCCOc1ccc(C(O)C(CN2CCOCC2)c2ccccc2)cc1 (stereo not drawn)
    -8%	-20%	5.4%	10%	1%	-6%	4%	-22%
[18] O=C(N/C(=C\c1cccc([N+](=O)[O-])c1)C(=O)N1CCOCC1)c1cccc(Br)c1
    .	8%	.	4%	-1%	-7%	-4%	22%
[19] N#Cc1ccc(NC(=O)CNc2cc(S(=O)(=O)N3CCOCC3)ccc2NCC2CCCO2)cc1 (stereo not drawn)
    .	-3%	.	0%	0%	-22%	-3%	16%
[20] O=C(CSc1nnc(CNC(=O)c2ccco2)o1)Nc1cccc(F)c1
    .	.	.	-1%	-1%	.	-8%	-15%
[21] C=CCN1C(=O)C(Cc2ccc(C)cc2)S/C1=N/N=C/c1ccco1 (stereo not drawn)
    8%	?	-4.5%	0%	1%	15%	-9%	.
[22] CCOC(=O)c1cc(C(=O)OCC)c(=O)[nH]c1N1CCCC1
    .	.	.	-15%	1%	.	-1%	-2%
[23] O=C(O)COc1ccc(/C=N/NC(=O)c2cn(-c3ccccc3)nc2-c2ccccc2)cc1
    .	-2%[46.1 µM]	.	-9%	-4%	?	12%	1%
[24] Clc1cccc(CSc2ncn(-c3ccccc3)n2)c1
    -15%	12%	-6.0%	-11%	-35%	26%	-21%	34%[activator]
[25] O=C(NCC1CC1)Nc1ccccc1F
    .	3%[46.1 µM]	.	-10%	1%	?	1%	7%
[26] COc1ccc(-c2ccc3c(N)c(C(=O)Nc4ccc(C(F)(F)F)cc4)sc3n2)cc1OC
    1%	19%[46.1 µM]	-2.5%	.	.	?	.	0%
[27] CC1(C)CCC(=NNC(N)=S)CC1
    .	-2%	.	2%	.	?	.	-5%
[28] CN(C)c1ccc(/C=N/N(Cc2ccccc2)c2ccccc2)cc1
    ?	2%	-5.5%	0%	-3%	16%	4%	-15%
[29] Cc1cc(C)n(-c2nc3ccccc3nc2N2CCN(c3cccc(C)c3C)CC2)n1
    -4%	29%[46.1 µM]	2.0%	.	.	-3%[46.1 µM]	.	3%
[30] CCOC(=O)/C(=C\c1ccc([N+](=O)[O-])o1)NC(=O)c1ccccc1
    0%	-12%	-1.6%	-19%	0%	2%	-10%	.
[31] COc1ccc(C(=O)N(C)Cc2ccccn2)cc1OC1CCN(C(C)C)CC1
    .	15%	.	-26%	-2%	4%	0%	-1%
[32] Cc1nc(CNC(=O)CC2C(=O)NCCN2Cc2cccc(Oc3ccccc3)c2)cs1 (stereo not drawn)
    .	.	.	3%	2%	.	2%	-11%
[33] CC1(C)CC(=O)C2=C(C1)OC(N)=C(C#N)C2c1cccc(OC(=O)c2ccco2)c1 (stereo not drawn)
    -7%	-16%	-13%	12%	8%	5%	-29%	.
[34] O=C(N[C@@H](Cc1ccccc1)C(=O)NC1CCCCCC1)c1ccco1
    -2%	3%	2.0%	-3%	0%	4%	0%	20%
[35] COc1cc(/C=N/S(=O)(=O)CCc2ccccc2)ccc1O
    13%	2%	-3.6%	0%	9%	-1%	-4%	-4%
[36] COc1ccc(NC(=O)c2oc3ccccc3c2NC(=O)c2cc(OC)c(OC)c(OC)c2)cc1
    21%	?	-2.2%	.	.	?	.	-27%
[37] CCN(CC)S(=O)(=O)c1ccc(C(=O)N2CCc3ccccc32)cc1
    .	-2%[46.1 µM]	.	7%	0%	-16%[46.1 µM]	.	-16%
[38] CC1CC(C)CN(C(=O)c2nn(C)c3c2CSc2ccccc2-3)C1 (stereo not drawn)
    .	.	.	-10%	-9%	.	-43%	-4%
[39] O=C(CSc1nnc(-c2ccccn2)o1)Nc1ccc(F)cc1
    .	.	.	1%	0%	.	-9%	4%
[40] CC1CCN(c2ccc3nnc(CCC(=O)NC(C)C)n3n2)CC1
    .	-23%	.	0%	1%	?	-1%	-9%
[41] c1ccc(CCn2cccc2)nc1
    .	2%	.	5%	.	8%	.	-1%
[42] O=C(NNC1=NCCN1Cc1ccccc1)c1cccc(C(F)(F)F)c1
    .	1%	.	-1%	-1%	-1%	2%	9%
[43] COc1cccc(CN2C(=O)CN(C3CCCCC3)C(=O)C2c2ccc(OC)c(OC)c2)c1 (stereo not drawn)
    -12%	?	3.1%	.	.	.	.	-22%
[44] CCc1cc(=O)oc2c(C)c(O)c(CN(C)C)cc12
    -6%	9%	?	12%	0%	10%	-8%	-17%
[45] CCC(C)c1ccc(NC(=O)C/C(C)=N/NC(=O)c2cnccn2)cc1 (stereo not drawn)
    22%	?	-3.4%	27%	0%	2%	18%	-9%
[46] Cc1ccccc1N1C(=O)CC(=O)NC1=O
    -7%	5%	1.5%	15%	7%	-11%	4%	-11%
[47] Cn1nccc1C(=O)Nc1cccc(C(F)(F)F)c1
    .	2%[46.1 µM]	.	-8%	-1%	-9%[46.1 µM]	.	5%
[48] NC(=O)c1nsc(C(=O)N(Cc2ccco2)C(C(=O)NCC2CCCO2)c2ccc(O)cc2)c1N (stereo not drawn)
    .	-2%	.	-23%	0%	-8%[46.1 µM]	-2%	13%
[49] COc1cc2nc(Cl)nc(N3CCCCC3)c2cc1OC
    .	?	.	12%	-2%	?	.	-28%
[50] O=C1OCC(c2ccccc2)=C1c1ccc(S(=O)(=O)N2CCOCC2)s1
    2%	22%	-2.9%	3%	-5%	3%	9%	-20%
[51] COc1ccc(C(=O)N[C@H]2CCCCNC2=O)cc1OC1CCN(C(C)C)CC1
    .	.	.	-2%	2%	.	-1%	10%
[52] Cc1ccccc1OCC(=O)N/N=C1\CC(=O)CC(C)(C)C1
    .	27%[46.1 µM]	.	2%	0%	-1%[46.1 µM]	6%	-20%
[53] Cc1ccc(S(=O)(=O)Nc2ccncc2)c(C)c1N(C)S(=O)(=O)c1ccc(F)cc1
    2%	?	-1.9%	12%	-8%	?	-4%	-10%
[54] N#Cc1nc(-c2ccco2)oc1NCCCN1CCOCC1
    -10%	1%	-4.5%	2%	-6%	6%	2.5µM*	12%
[55] COc1ccc(CCN2CC(C(=O)NCc3cc(C(C)C)no3)CCC2=O)cc1 (stereo not drawn)
    .	13%[46.1 µM]	.	-2%	-7%	1%[46.1 µM]	-16%	2%
[56] Cc1ccc(S(=O)(=O)NCC(=O)OCC(=O)Nc2ccccc2OC(F)F)cc1
    3%	0%	-14%	2%	-10%	10%	-11%	-1%
[57] COc1ccc(C(=O)NCC(=O)OCC(=O)NCc2ccc3c(c2)OCO3)cc1
    .	-9%[46.1 µM]	.	-10%	9%	2%[46.1 µM]	.	0%
[58] CCN(CC)S(=O)(=O)c1cccc(-c2nnc(SCCOc3ccccc3)o2)c1
    1%	10µM*	-1.6%	-23%	-12%	?	-18%	?
[59] CCO[C@H]1OC(C(=O)N2CCN(C)CC2)=C[C@@H](c2ccc3c(c2)OCO3)[C@@H]1CCCO
    .	.	.	11%	-1%	.	2%	0%
[60] Cc1ccc(N(CC(=O)NCCc2ccccc2)C(=O)c2csnn2)cc1
    .	-13%[46.1 µM]	.	0%	-11%	-8%[46.1 µM]	-12%	3%
[61] N#C/C(=C\c1ccc(OCCN2CCOCC2)cc1)C(=O)Nc1ccccc1F
    .	15%	.	-2%	-8%	11%	10%	?

# Compound activity deposited in PubChem BioAssay by National Center for Advancing Translational Sciences (NCATS).
